From PubChem
HNF4A DNA FP: change in binding of human HNF4A to DNA, primary screen, biochemical, fluorescence polarization, FITC-DNA; activity change, % at 10 µM; AID 1224865, 2016; Hepatocyte nuclear factor 4-alpha (Homo sapiens), P41235; 1 h; actives 0.3% (n = 360,000); in the data active means activity change above about 30%, passing the limit was not always enough;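 further: controls were the assay level and a saturating level of protein; the project sought stronger binding though the title names inhibitors; some compounds called inactive have numbers as strong as hits; positive values seem to mean higher polarization but the record does not say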
AF4-AF9 inh: inhibitors of AF4 peptide binding to AF9, primary screen, biochemical, AlphaScreen, biotin-AF4 peptide, FLAG-AF9, single point; Protein AF-9 (Homo sapiens), P42568; inhibition, % at 10 µM; actives 0.47% (n = 350,000);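 active means every replicate reaching a set inhibition limit, whatever the replicate mean, cut at about 25% in these data; inconclusive means mean inhibition reaches that limit but some replicates miss it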;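 further: 0% = plate neutral control median and 100% = total signal loss; the record names both 10 and 1 µM as test concentration; the first replicate is given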
Target sequence (P42568 whole entry, looked up): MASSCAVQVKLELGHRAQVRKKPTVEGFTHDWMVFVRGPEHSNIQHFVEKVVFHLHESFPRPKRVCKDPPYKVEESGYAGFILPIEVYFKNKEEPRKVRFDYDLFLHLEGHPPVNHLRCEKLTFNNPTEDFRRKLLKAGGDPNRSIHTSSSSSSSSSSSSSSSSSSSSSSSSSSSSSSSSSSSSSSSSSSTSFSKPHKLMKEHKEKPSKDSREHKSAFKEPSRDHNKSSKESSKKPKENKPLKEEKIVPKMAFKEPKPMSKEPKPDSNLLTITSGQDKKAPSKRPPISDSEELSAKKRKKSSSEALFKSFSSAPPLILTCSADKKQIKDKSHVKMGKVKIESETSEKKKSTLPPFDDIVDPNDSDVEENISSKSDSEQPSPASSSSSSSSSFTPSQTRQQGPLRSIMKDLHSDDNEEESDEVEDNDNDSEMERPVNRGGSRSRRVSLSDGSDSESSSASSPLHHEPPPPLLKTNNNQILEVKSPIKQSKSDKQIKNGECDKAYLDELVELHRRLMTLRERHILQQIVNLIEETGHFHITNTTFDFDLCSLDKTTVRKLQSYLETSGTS
rRNA inh HTS: reduced GFP signal of wild-type E. coli, primary screen, bacterial rRNA inhibitor project, GFP/RFP fluorescence, OD600, single point | GFP signal change (wild-type ribosome), % (concentration not given with the values) | AID 720706, 2013 | actives 1.6% (n = 350,000) | E. coli WT GFP vs humanized-ribosome RFP mutants, 24 h; stronger effect = lower value; DMSO median 0, no signal -100;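 active means significant combined selectivity score with lowered wild-type GFP, culture density cut under 30%, mutant RFP and density less affected; inactive means any of these conditions unmet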; further: one replicate is shown; some compounds called inactive have numbers as strong as hits
FGF22 binding: binders of human FGF22 protein, primary screen, FGF22 synaptogenesis inhibitor project, biophysical, thermal shift, single point; Fibroblast growth factor 22 (Homo sapiens), Q9HCT0; recombinant FGF22 thermal shift, SYPRO orange fluorescence; percent of sucrose octasulfate shift, DMSO zero; calls only at 9.99 µM; actives 1.5% (n = 340,000);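 active means melting point raised past a set limit in the mean and every replicate; inconclusive means no clear call; three in four hits are not shown here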
Target sequence (Q9HCT0 whole entry, looked up): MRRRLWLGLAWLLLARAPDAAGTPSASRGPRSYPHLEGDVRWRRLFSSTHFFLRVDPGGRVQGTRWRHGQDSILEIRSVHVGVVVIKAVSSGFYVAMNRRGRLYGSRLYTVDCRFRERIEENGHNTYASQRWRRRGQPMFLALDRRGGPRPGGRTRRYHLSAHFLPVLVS
E coli growth: E. coli growth inhibition, primary screen, OD600; Escherichia coli growth, 23 h; stronger effect = lower value; OD600 absorbance (no concentration beside the values); actives 0.21% (n = 330,000);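 active means OD600 absorbance below the run mean of sample wells minus 3.6 SD, in any replicate, cut at about 0.56 in these data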;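 further: stock transfer was 300 nL into about 60 µL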
Vif A3G: inhibitors of Vif binding to APOBEC3G peptide, primary screen, biochemical, TR-FRET, GST-Vif 1-94, biotin-A3G peptide, dose response retest (AID 1117319) | inhibition, %, or IC50 in µM where a hit was titrated | actives 0.57% (n = 260,000) | Virion infectivity factor (Human immunodeficiency virus type 1 group M subtype B (isolate … | TR-FRET GST-Vif / biotin-A3G peptide binding; higher % means a stronger effect; test concentration not given here; strong numbers were not always called active;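 active means above the screen mean plus three standard deviations and confirmed in dose response; inconclusive means results disagree or hit not tested in dose response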;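 further: Vif residues 1-94 fused to GST binding biotinylated APOBEC3G peptide 110-148; 0% = full assay without inhibitor and 100% = GST in place of GST-Vif; retest series ran down from 100 µM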
ALR inh: inhibitors of human ALR sulfhydryl oxidase, primary screen, biochemical, H2O2 detection, HRP-luminol luminescence, single point; inhibition, % (test concentration not listed); purified ALR, DTT oxidation; actives 3.8% (n = 290,000); AID 485317, 2010;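 active means mean and each replicate at 75% or more; inconclusive means only one of the two met; inactive means neither met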;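 further: stock transfer was 7.5 nL into about 7.5 µL; 0% = neutral wells and 100% = wells with inactivated enzyme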
Target sequence (P55789 whole entry, looked up): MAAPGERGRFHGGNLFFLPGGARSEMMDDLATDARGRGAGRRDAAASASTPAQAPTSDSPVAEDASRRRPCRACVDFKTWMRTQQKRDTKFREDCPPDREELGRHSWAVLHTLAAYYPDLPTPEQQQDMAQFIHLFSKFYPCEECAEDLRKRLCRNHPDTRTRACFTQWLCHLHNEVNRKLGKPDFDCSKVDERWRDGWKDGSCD
rRNA inh HTS OD600: further read-out of rRNA inh HTS, marked with its call; OD600 change, %; measured here: OD600 growth;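 optical density of the mix in the first replicate; 0 = DMSO median and -100 = no signal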
rRNA inh HTS RFP: recorded beside rRNA inh HTS, whose call it bears; RFP signal change, %; measured here: RFP humanized mutant strains;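 first replicate; 0 = DMSO median and -100 = no signal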
Active calls of the source: *; i = inactive; ? = inconclusive; nt = no result given; & = joins results of further samples. Not all compounds are listed. The share of hits here may be higher or lower than overall.

SMILES	HNF4A DNA FP	AF4-AF9 inh	rRNA inh HTS	rRNA inh HTS OD600	rRNA inh HTS RFP	FGF22 binding	E coli growth	Vif A3G	ALR inh
CCn1c(SCC(=O)Nc2ccc3c(c2)OCCO3)nc2c(c1=O)SC(C)C2 (centres undefined)	1.5	nt	nt	nt	nt	nt	0.72	1%	nt
C[C@@H]1CN([C@H](C)CO)C(=O)c2cc(-c3cccc(F)c3)cnc2O[C@H]1CN(C)C(=O)Nc1ccccc1F	nt	-1.6	-2	-5	-1.4	i	nt	nt	nt
CC(=O)NC(Cc1cccc(F)c1)C(=O)NC1CCN(C(=O)c2cccc(C)c2)CC1 (centres undefined)	-1.1	0.1	25	22	5.1	nt	0.73	7%	39
CCOc1ccc(C(=O)/C=C/c2ccccc2C(F)(F)F)cc1	3.0	nt	nt	nt	nt	nt	0.73	-1%	5
COc1cc2cc(C(=O)N3CCN(c4ccccc4OC)CC3)[nH]c2cc1OC	-0.9	1.6	-3	-3	2.2	i	0.69	-14%	-12
CC(NC(=O)CCCN1C(=O)c2ccccc2C1=O)c1ccc2c(c1)CCCC2 (centres undefined)	1.5	nt	nt	nt	nt	nt	0.7	-4%	-4
CN(Cc1ccccc1)C(=O)c1[nH]cnc1C(=O)NCC(=O)OCc1ccccc1	7.5	-0.3	-5	4	2.9	i	0.67	nt	nt
CC(C)CNc1nc(N)c([N+](=O)[O-])c(NCC2CCCO2)n1 (centres undefined)	2.4	-3.9	2	-3	-9.4	i	0.69	-2%	5
O=C(C[n+]1ccc2ccccc2c1)Nc1cc(C(F)(F)F)ccc1Cl	5.1	5.9	15	-2	-1.0	i	nt	nt	-4
NC(=O)c1ccc(NCCc2cccs2)cc1	-2.2	-0.4	0	-2	0.1	i	nt	nt	nt
CCC(C)(C)NC(=O)C(c1ccc(C)o1)N(C(=O)c1csnn1)c1cccc(F)c1 (centres undefined)	-1.9	nt	nt	nt	nt	nt	0.68	-5%	-8
C[C@@H]1CN([C@@H](C)CO)C(=O)c2cccc(NS(C)(=O)=O)c2O[C@@H]1CN(C)C(=O)Nc1ccc2c(c1)OCO2	nt	1.4	1	8	-1.5	i	nt	nt	nt
O=C(Oc1ccccc1C(=S)N1CCOCC1)c1ccc([N+](=O)[O-])cc1[N+](=O)[O-]	2.1	10	-4	4	-1.4	i	0.71	nt	nt
Cc1cc(C)nc(SCC(=O)OCN2C(=O)c3ccccc3C2=O)n1	-0.9	nt	nt	nt	nt	nt	0.81	5%	nt
C[C@@H]1CN([C@@H](C)CO)S(=O)(=O)c2ccc(C#Cc3cccc(F)c3)cc2O[C@H]1CN(C)S(=O)(=O)c1cn(C)cn1	-1.0	-0.3&-0.4&2.6	-7&-4	-23&-4	0.1&3.4	i	nt	-5%	nt
Cc1ccc(C(=O)NCC(=O)NCC(c2cccs2)N2CCOCC2)cc1C (centres undefined)	2.8	5.6	3	8	-3.4	i	0.68	nt	0
COc1ccc(CC(N)c2csc(Nc3cccc(OC)n3)n2)cc1 (centres undefined)	3.2	1.5	-61	-79	-21	i	nt	nt	nt
CC(C)(C)NC(=O)c1ccc2c(c1)N(CC(=O)N1CCN(c3ccccc3F)CC1)C(=O)C(C)(C)O2	2.9	nt	nt	nt	nt	nt	0.72	-6%	-4
CCCCNC(=O)CSc1nnc(Cc2ccccc2)n1CC1CCCO1 (centres undefined)	-1.4	-2.9	14	17	-4.3	i	0.67	-7%	-8
COc1cc2c(C#CCCO)c(-c3ccc(C#N)cc3)oc(=O)c2cc1OC	-0.3	-0.9	3	8	5.6	i	0.7	nt	-13
Cc1c(C(=O)Nc2ccc(S(=O)(=O)NCC3CCCO3)cc2)cccc1[N+](=O)[O-] (centres undefined)	-1.0	0.8	-6	-6	-0.7	i	0.67	?	-4
COc1ccc(NS(=O)(=O)c2cccc(C(=O)N/N=C/c3ccccn3)c2)cc1	-0.2	-3.9	-1	-5	0.1	i	nt	11%	4
CCCNC(=O)c1cc2ccccc2c(=O)o1	0.4	-18	0	12	-5.5	i	0.68	0%	0
Cc1ccccc1CNC(=O)CN1C(=O)c2ccccc2S1(=O)=O	-1.1	-0.4	5	7	-0.1	i	0.7	nt	-3
COc1cc(C(=O)OC(C)C(=O)Nc2ccc3c(c2)OCO3)ccc1OCc1c(C)noc1C (centres undefined)	2.8	nt	nt	nt	nt	nt	0.73	5%	-2
SMILES	HNF4A DNA FP	AF4-AF9 inh	rRNA inh HTS	rRNA inh HTS OD600	rRNA inh HTS RFP	FGF22 binding	E coli growth	Vif A3G	ALR inh
CO[C@H]1CN(C)C(=O)c2ccc(NC(=O)c3nc4ccccc4s3)cc2OC[C@@H](C)NC[C@H]1C	nt	1.7	-3	3	-0.3	i	nt	nt	nt
Cc1nc(CNS(=O)(=O)c2cccnc2)cs1	3.2	nt	nt	nt	nt	nt	0.59	2%	-7
CCOc1ccc(N(CC(=O)NCc2ccc(Cl)cc2)S(=O)(=O)c2c(C)noc2C)cc1	1.3	-0.1	6	14	-1.5	i	0.7	1%	-30
COc1ccc(NC(=O)CCNC(=O)c2ccc([N+](=O)[O-])cc2)cc1S(=O)(=O)N1CCCCC1	2.4	3.6	-7	-4	1.1	i	0.62	3%	nt
CNC(=O)C1CCN(S(=O)(=O)c2c(C)noc2/C=C/c2ccc(OC)cc2)CC1	3.6	-1.3	2	-4	-4.1	i	0.74	nt	1
Cc1cc(C)c(NC(=O)OCCN2CCOCC2)c(C)c1	2.6	nt	nt	nt	nt	nt	0.73	-4%	-4
CCOc1ccc(CN(C)C(=O)Cc2c[nH]c3ccccc23)cc1	-1.4	-19	-19	-16	-1.7	i	0.67	-6%	5
CCOC(=O)C(C(=O)OCC)N(C#N)c1nc(N(C)C)nc(N(C)C)n1	4.1	-3.4	-3	-4	-3.4	i	0.7	8%	nt
Cc1cc(N2CCC(C(N)=O)CC2)nc(-c2ccccc2)n1	4.3	nt	nt	nt	nt	nt	0.67	-8%	-3
Cc1sc2ncnc(SCC(=O)Nc3nc(-c4ccc(F)c(F)c4)cs3)c2c1C	15	-1.9	9	4	2.0	i	nt	-6%	-5
C[C@@H]1CN([C@@H](C)CO)C(=O)CCCn2nncc2CO[C@H]1CN(C)C(=O)c1ccc2ccn(C)c2c1	-0.1	-5.9&-5.0&-2.2	5&1	8&-5	0.3&0.0	i	nt	nt	nt
Cc1ccc2nc(NC(=O)c3cccs3)sc2c1	-1.8	nt	nt	nt	nt	nt	0.73	-3%	-14
O=C(Nc1ncn[nH]1)c1cc([N+](=O)[O-])ccc1Cl	0.3	2.4	14	8	0.9	i	0.68	nt	12
CCOC(=O)c1oc2ccc(S(=O)(=O)N3CCC(C)CC3)cc2c1C	2.5	-4.9	11	8	-2.5	i	0.74	3%	-4
Cc1ccccc1Cn1nnc(C(=O)Nc2cccc(C)c2C)c1N	-5.0	nt	nt	nt	nt	nt	nt	4%	-4
O=[N+]([O-])c1cnc2ccccc2c1	3.2	-4.6	6	5	1.8	i	0.69	1%	-23
O=C(NC(=S)N1CCCC1)c1ccc(Cl)cc1Cl	5.2	-0.2	3	1	0.6	i	0.69	6%	-3
Cc1ccc(N2CC(C(=O)O)CC2=O)cc1 (centres undefined)	2.1	-0.3	9	10	-0.4	i	0.66	-6%	1
CC(C)NC(=O)N(C)C[C@@H]1OCCCC[C@@H](C)Oc2ccc(NS(=O)(=O)c3cccs3)cc2C(=O)N([C@H](C)CO)C[C@@H]1C	nt	-0.1	1	-3	-4.0	i	nt	nt	nt
O=C(Oc1ccc(OC(=O)N2CCOCC2)cc1)c1ccccc1	0.6	nt	nt	nt	nt	nt	0.74	-5%	8
CSc1ccc(S(=O)(=O)NCC(=O)OCCOc2ccccc2)cc1[N+](=O)[O-]	-2.1	-4.1	3	8	-1.3	i	0.63	0%	0
Nc1c(OS(=O)(=O)c2ccccc2)cccc1OS(=O)(=O)c1ccccc1	-3.2	-2.3	5	-15	0.2	i	nt	3%	nt
CC(C)C(=O)N1CCN(c2ccccc2NC(=O)COc2ccccc2)CC1	-1.6	-2.0	-27*	-17*	0.3*	i	0.72	-3%	nt
C[C@@H]1CCCCO[C@H](CN(C)C(=O)Nc2ccccc2)[C@@H](C)CN([C@@H](C)CO)C(=O)c2cc(NS(=O)(=O)c3cn(C)cn3)ccc2O1	nt	0.5	2	3	-1.8	i	nt	nt	nt
Cc1ccc(S(=O)(=O)NCCC(=O)NCc2ccc3c(c2)OCO3)cc1C	-0.6	nt	nt	nt	nt	nt	0.75	1%	0
SMILES	HNF4A DNA FP	AF4-AF9 inh	rRNA inh HTS	rRNA inh HTS OD600	rRNA inh HTS RFP	FGF22 binding	E coli growth	Vif A3G	ALR inh
O=C(Nc1ccccc1F)N1CCCCN2[C@H](CO)[C@H](c3ccc(-c4cccnc4)cc3)[C@H]2C1	nt	3.3	-4	3	1.1	i	nt	nt	nt
C[C@@H]1CCCCO[C@H](CN(C)S(=O)(=O)c2cccs2)[C@@H](C)CN([C@H](C)CO)C(=O)c2cc(NC(=O)CCCN(C)C)ccc2O1	nt	-1.1	1	5	-2.1	i	nt	nt	nt
CN(Cc1c(F)cccc1Cl)C(=O)COC(=O)Cn1cnc2ccccc2c1=O	1.7	2.2	nt	nt	nt	i	nt	-4%	nt
C[C@H]1CN([C@@H](C)CO)C(=O)c2ccccc2-c2ccccc2CO[C@H]1CN(C)C(=O)c1cc(Cl)cc(Cl)c1	nt	2.8	0	3	0.1	i	nt	nt	nt
Cc1cc(S(=O)(=O)Nc2ccc(C(=O)NCC(C)(C)N3CCOCC3)cc2)ccc1F	-3.3	-0.5	14	14	2.6	i	0.68	-7%	-2
COC(=O)[C@@]1(Cc2ccc(OC)cc2)[C@H]2c3cc(C(=O)N4CCCC4)n(Cc4ccc(Cl)c(C(F)(F)F)c4)c3C[C@H]2CN1C(=O)c1ccccc1	11	2.7	18	3	8.6	i	nt	nt	nt
CC(C)CN1CCN(Cc2cccc3cccnc23)CC1CCO (centres undefined)	0.4	0.5	20	17	0.0	i	0.71	nt	-4
CCN(CC(=O)NCc1ccc(F)cc1)CC(=O)Nc1ccc(Br)cc1F	-2.8	-1.8	-17	-20	-3.7	i	0.68	11%	-10
O=C(C[C@@H]1C[C@@H]2c3cc(NC(=O)C4CCC4)ccc3O[C@@H]2[C@H](CO)O1)NCc1ccccc1	nt	-0.8	2	-1	-1.9	i	nt	nt	nt
COCCn1c(SCc2cccnc2)nnc1-c1ccco1	3.3	nt	nt	nt	nt	nt	0.73	3%	-2
CCOC(=O)C1CCN(C2CC(=O)N(c3cccc(Cl)c3)C2=O)CC1 (centres undefined)	1.7	nt	14	14	0.3	nt	0.7	25%	3
O=C(Nc1cccc(-c2csc(Nc3ccc(Cl)cc3)n2)c1)c1ccccc1	2.8	nt	0	8	5.6	i	0.71	nt	-3
Cc1nnc(SCc2ccccc2)[nH]c1=O	1.2	-0.2	-1	3	-0.8	i	0.64	nt	-22
O=S(=O)(c1cccs1)N1CCCc2cccc(O)c21	3.4	nt	nt	nt	nt	nt	0.69	-1%	45

Three of the entries above in order of their number in Vif A3G, lowest first.
canonical_smiles,Vif A3G
Cc1cc(S(=O)(=O)Nc2ccc(C(=O)NCC(C)(C)N3CCOCC3)cc2)ccc1F,-7%
CN(Cc1c(F)cccc1Cl)C(=O)COC(=O)Cn1cnc2ccccc2c1=O,-4%
CCN(CC(=O)NCc1ccc(F)cc1)CC(=O)Nc1ccc(Br)cc1F,11%
